From PubChem
PrP 5UTR inh: inhibition of PrP 5' UTR reporter expression. cell-based PrP 5' UTR mRNA reporter, plate reader. inhibition, % (concentration not given with the values). 0.35% of 340,000 active;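 active means every replicate at 50% or more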;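 further: 0 = median of the neutral control wells; tested in H4 reporter cells; numbers are from one replicate; inactives centre near -14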
BJeLR viability: MLPCN primary cell-based screen for lethality selective to Ras in HRASV12 cells; inhibition, % (no concentration beside the values); BJeLR (HRASV12) viability, CellTiter-Glo ATP luminescence, 48 h; reference of the scale not given here; AID 1554, 2009; 0.17% of 300,000 active;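 active means replicate mean above 50%; inconclusive means above 50% but judged a plate artefact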;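 further: 50 nL library stock added to about 25 µL; numbers are from one replicate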
Autofluor counter: compound fluorescence in toxin protease inhibitor counterscreen. compound autofluorescence counterscreen, microsphere flow cytometry; active compounds read high. fluorescence intensity (no concentration beside the values). 3.1% of 360,000 active. AID 624483;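 active means at least 3 SD above the mean of all compounds, about 16000 in these data; inconclusive means too few beads counted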;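 further: 100 nL of 1 mM stock went into each well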
Mtb hypoxia rep: PubChem AID 1159583; M. tuberculosis hypoxia-regulated fluorescent reporter, fluorescence; fluorescence inhibition, % (test concentration not listed); 0.1% of 300,000 active;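 active means 35 to 45% if threefold the growth effect, above 45% if 1.5-fold the growth effect; inactive means the rest, general growth blockers included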;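 further: wells of about 50 µL received 100 nL stock; 0% = vehicle wells and 100% = reference inhibitor wells; whole bacteria with a GFP reporter of the hypoxia response; strong numbers were not always called active; many hits fall short of the cut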
Sa RN4220 lethal: growth inhibition of S. aureus RN4220, primary screen, OD600. 16 h. inhibition, % (no concentration beside the values). 0.33% of 330,000 active;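 active means z-score of -3 or lower and OD600 up to 0.18 on both plates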;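 further: plate controls were untreated cells for no effect and reference antibiotic for full effect; stock transfer was 100 nL into about 80 µL; one replicate is shown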
ugtP null kill: growth inhibition of ugtP-null S. aureus, primary screen, RN4220 ugtP deletion, OD600. 16 h; some inactives read as strong as hits. growth inhibition, % (test concentration not listed). 0.54% of 330,000 active. AID 1259309, 2017;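 active means z-score under -3 and OD600 up to 0.15 on both plates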;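 further: plate controls were untreated wells for no effect and antibiotic for full effect; wells of about 80 µL received 100 nL stock; the first replicate is given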
Mtb hypoxia rep growth: second read-out of Mtb hypoxia rep, no call of its own (marks repeat the call); growth inhibition, %; measured here: M. tuberculosis growth (absorbance);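 0% = vehicle and 100% = reference antibiotic; read after six days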
Starred values were filed as active, the others as inactive.

Results for CC1CCc2c(sc(NC(=O)CSc3nc4c(c(C(F)(F)F)n3)CCc3ccccc3-4)c2C(N)=O)C1 (stereo not given) ?
PrP 5UTR inh: -12; BJeLR viability: -7; Autofluor counter: 2540; Mtb hypoxia rep: 12; Sa RN4220 lethal: -0.6; ugtP null kill: 0; Mtb hypoxia rep growth: -2

Results for COc1ccc(CNC(=O)c2cnc(C)cn2)c(OC)c1 ?
PrP 5UTR inh: -24; BJeLR viability: 4; Autofluor counter: 10230; Sa RN4220 lethal: 3.1; ugtP null kill: 3

Results for O=C(CCn1c(=O)oc2ccc(Cl)cc21)N1CCN(c2ccccc2)CC1 ?
PrP 5UTR inh: -16; BJeLR viability: 4; Autofluor counter: 3181; Mtb hypoxia rep: 1; Sa RN4220 lethal: 1.5; ugtP null kill: 8; Mtb hypoxia rep growth: -3

How did CCOC(=O)C1C2COc3ccccc3C2N2C(=O)CNC(=O)[C@@]12C (stereo not given in full) do in these assays?
Mtb hypoxia rep: 7; Sa RN4220 lethal: 4.2; ugtP null kill: -1; Mtb hypoxia rep growth: 11

How did COc1ccc(C=Nn2cncn2)cc1CSc1ccccn1 do in these assays?
Mtb hypoxia rep: -7; Sa RN4220 lethal: 5.0; ugtP null kill: -3; Mtb hypoxia rep growth: 2

How did COc1ccc(C(=O)Nc2cc(C)on2)cc1[N+](=O)[O-] do in these assays?
PrP 5UTR inh: -68; BJeLR viability: -11; Autofluor counter: 2632; Mtb hypoxia rep: 8; Sa RN4220 lethal: 5.6; ugtP null kill: 12; Mtb hypoxia rep growth: -9

What do the screens show for `COc1ccc(-c2nc(SCC(=O)Nc3cccc(S(N)(=O)=O)c3)n[nH]2)cc1`?
PrP 5UTR inh: -8; Autofluor counter: 5349; Mtb hypoxia rep: 7; Sa RN4220 lethal: -2.6; ugtP null kill: 4; Mtb hypoxia rep growth: -8

What do the screens show for `Cc1ccn2c(NC(=O)c3ccccc3)c(-c3ccccc3)nc2c1`?
PrP 5UTR inh: -20; BJeLR viability: -1; Autofluor counter: 3374; Mtb hypoxia rep: 17; Sa RN4220 lethal: 3.3; ugtP null kill: 8; Mtb hypoxia rep growth: 11

How did O=C(c1ccc(Cl)cc1)C(CN1CCCC1)c1ccccc1 (stereo not given) do in these assays?
PrP 5UTR inh: -22; BJeLR viability: 19; Autofluor counter: 3909; Mtb hypoxia rep: 14; Sa RN4220 lethal: 67; ugtP null kill: 87*; Mtb hypoxia rep growth: 6

What do the screens show for `Cc1ccc(NC2c3ccccc3C(=O)N2c2cccnc2)cc1` (stereo not given)?
PrP 5UTR inh: -11; BJeLR viability: -4; Autofluor counter: 3340; Mtb hypoxia rep: 17; Sa RN4220 lethal: 2.5; ugtP null kill: 0; Mtb hypoxia rep growth: 3

How did O=C(NCc1ccc2c(c1)OCO2)c1cnc2ccccn2c1=O do in these assays?
PrP 5UTR inh: 8; BJeLR viability: -6; Autofluor counter: 10564; Mtb hypoxia rep: 4; Sa RN4220 lethal: -0.4; ugtP null kill: 6; Mtb hypoxia rep growth: 1

How did O=S(=O)(NC1c2cccc3cccc(c23)C1N1CCN(CCO)CC1)c1ccccc1 (stereo not given) do in these assays?
PrP 5UTR inh: -4; BJeLR viability: 12; Autofluor counter: 2710; Mtb hypoxia rep: 13; Sa RN4220 lethal: 16; ugtP null kill: 0; Mtb hypoxia rep growth: 8

Results for CCOC(=O)C(C)Sc1nc(-c2cccs2)ccc1C#N (stereo not given) ?
PrP 5UTR inh: -29; BJeLR viability: -1; Autofluor counter: 11865; Mtb hypoxia rep: -9; Sa RN4220 lethal: 4.7; ugtP null kill: -8; Mtb hypoxia rep growth: 1

Results for COc1ccc(C(CC(=O)Nc2ccccn2)N2Cc3ccccc3C2=O)cc1 (stereo not given) ?
PrP 5UTR inh: -41; BJeLR viability: -3; Autofluor counter: 3632; Mtb hypoxia rep: -1; Sa RN4220 lethal: 0.0; ugtP null kill: 14; Mtb hypoxia rep growth: 4

How did O/N=C/c1ccc2ccccc2n1 do in these assays?
PrP 5UTR inh: -40; BJeLR viability: -10; Autofluor counter: 3713

What do the screens show for `CCCN(C(=O)c1cc(Cl)nc2ccccc12)c1c(N)n(Cc2ccccc2)c(=O)[nH]c1=O`?
PrP 5UTR inh: -13; Autofluor counter: 3709; Mtb hypoxia rep: -6; Sa RN4220 lethal: 2.0; ugtP null kill: -1; Mtb hypoxia rep growth: 14

How did CCNC(=O)COC(=O)c1cc(=O)[nH]c2ccccc12 do in these assays?
PrP 5UTR inh: -40; BJeLR viability: -9; Autofluor counter: 9995; Mtb hypoxia rep: 10; Sa RN4220 lethal: 1.8; ugtP null kill: 4; Mtb hypoxia rep growth: 10

How did O=C(c1nc2ccc(Cl)cn2c1CNCC[C@@H]1C[C@@H]2C=C[C@H]1C2)N1CCCCCCC1 do in these assays?
PrP 5UTR inh: -46; BJeLR viability: 7; Autofluor counter: 8369; Mtb hypoxia rep: 13; Sa RN4220 lethal: 2.3; ugtP null kill: 5; Mtb hypoxia rep growth: 12

How did CCOC(=O)N1CCC(Nc2cc(C)nc3c(-c4ccccc4OC)c(C)nn23)CC1 do in these assays?
PrP 5UTR inh: -3; BJeLR viability: 3; Autofluor counter: 5935; Mtb hypoxia rep: 2; Sa RN4220 lethal: 3.3; ugtP null kill: 13; Mtb hypoxia rep growth: 8

What do the screens show for `COc1ccc(C2=NN(C(=O)CSc3ncccn3)C(c3ccc(OC)cc3)C2)cc1` (stereo not given)?
PrP 5UTR inh: -17; BJeLR viability: -8; Autofluor counter: 5100; Mtb hypoxia rep: 1; Sa RN4220 lethal: -1.1; ugtP null kill: -4; Mtb hypoxia rep growth: 5

How did O=C(Cc1ccccc1)N1CCC2(CC1)NCCc1[nH]cnc12 do in these assays?
PrP 5UTR inh: -20; BJeLR viability: 9; Autofluor counter: 5028; Mtb hypoxia rep: 11; Sa RN4220 lethal: 3.0; ugtP null kill: 7; Mtb hypoxia rep growth: 0

What do the screens show for `Cc1cc(=O)oc2cc(OCC(=O)NCC3CCC(C(=O)O)CC3)ccc12` (stereo not given)?
PrP 5UTR inh: -14; BJeLR viability: 1; Autofluor counter: 4961; Sa RN4220 lethal: 0.5; ugtP null kill: -2

Results for CCOC(=O)C(C(=O)OCC)c1c([N+](=O)[O-])c(=O)n2c3c(cccc13)CCC2 ?
PrP 5UTR inh: -6; BJeLR viability: 3; Autofluor counter: 3197; Mtb hypoxia rep: 5; Sa RN4220 lethal: 2.1; ugtP null kill: 5; Mtb hypoxia rep growth: -4

What do the screens show for `COC(=O)C1=C(c2cccc(OC)c2OC)C[C@@H]2CC[C@H]1N2C(=O)N1CCCCC1`?
PrP 5UTR inh: 12; BJeLR viability: 3; Autofluor counter: 3955

What do the screens show for `O=C(c1ccc2c(c1)OCO2)N1CCN=C1SCc1ccccc1`?
PrP 5UTR inh: -15; BJeLR viability: -4; Autofluor counter: 5063; Sa RN4220 lethal: 2.3; ugtP null kill: 4

What do the screens show for `O=C(CCN1C(=O)c2ccccc2C1=O)Nc1cccc(F)c1`?
PrP 5UTR inh: -16; BJeLR viability: 6; Autofluor counter: 10337; Mtb hypoxia rep: -2; Sa RN4220 lethal: 3.9; ugtP null kill: 0; Mtb hypoxia rep growth: 1

Results for CCOC(=O)CSC1=C(C#N)C(c2ccccc2OCC)C(C(=O)OCC)C(=O)N1 (stereo not given) ?
PrP 5UTR inh: -12; BJeLR viability: 8; Autofluor counter: 4073; Sa RN4220 lethal: 2.8; ugtP null kill: 4

How did Cc1cc(C)c2nc3nc(C)c(C)cc3c(N)c2c1 do in these assays?
PrP 5UTR inh: -17; BJeLR viability: 12; Autofluor counter: 3677; Mtb hypoxia rep: -3; Sa RN4220 lethal: -0.2; ugtP null kill: 0; Mtb hypoxia rep growth: 12

Results for CCCCCC(=O)NC(=S)NC1C2CC3CC(C2)CC1C3 (stereo not given) ?
PrP 5UTR inh: -4; BJeLR viability: 9; Autofluor counter: inconclusive; Mtb hypoxia rep: 11; Sa RN4220 lethal: -7.4; ugtP null kill: 60; Mtb hypoxia rep growth: 11

What do the screens show for `Fc1ccc(C(OCCN2CCCC2)c2ccc(F)cc2)cc1`?
PrP 5UTR inh: -1; BJeLR viability: -6; Autofluor counter: 7114; Mtb hypoxia rep: 6; Sa RN4220 lethal: 0.7; ugtP null kill: 17; Mtb hypoxia rep growth: 8

Three compounds picked at random from the list so far:
Results for CCCCCC(=O)NC(=S)NC1C2CC3CC(C2)CC1C3 (stereo not given) ?
PrP 5UTR inh: -4; BJeLR viability: 9; Autofluor counter: inconclusive; Mtb hypoxia rep: 11; Sa RN4220 lethal: -7.4; ugtP null kill: 60; Mtb hypoxia rep growth: 11

What do the screens show for `Cc1cc(=O)oc2cc(OCC(=O)NCC3CCC(C(=O)O)CC3)ccc12` (stereo not given)?
PrP 5UTR inh: -14; BJeLR viability: 1; Autofluor counter: 4961; Sa RN4220 lethal: 0.5; ugtP null kill: -2

How did CCOC(=O)N1CCC(Nc2cc(C)nc3c(-c4ccccc4OC)c(C)nn23)CC1 do in these assays?
PrP 5UTR inh: -3; BJeLR viability: 3; Autofluor counter: 5935; Mtb hypoxia rep: 2; Sa RN4220 lethal: 3.3; ugtP null kill: 13; Mtb hypoxia rep growth: 8

More entries.
How did C=C(C)Cn1c(COc2ccccc2)nnc1SCC(=O)O do in these assays?
PrP 5UTR inh: -14; BJeLR viability: 1; Autofluor counter: 2377; Mtb hypoxia rep: 4; Sa RN4220 lethal: 7.4; ugtP null kill: 5; Mtb hypoxia rep growth: 5

Results for COc1ccc(/C=C2\CN(Cc3ccccc3)C/C(=C\c3ccc(OC)cc3)C2=O)cc1 ?
PrP 5UTR inh: -22; Autofluor counter: 2542; Mtb hypoxia rep: 3; Sa RN4220 lethal: -0.7; ugtP null kill: -1; Mtb hypoxia rep growth: 6

How did CCCCCCC(CC(=O)NCc1cccnc1)CC(=O)NCc1cccnc1 do in these assays?
PrP 5UTR inh: -10; BJeLR viability: 2; Autofluor counter: 4135; Mtb hypoxia rep: 5; Sa RN4220 lethal: 3.2; ugtP null kill: 3; Mtb hypoxia rep growth: 3

What do the screens show for `O=C(c1cc(C(=O)N2CCCC2)cc([N+](=O)[O-])c1)N1CCCC1`?
PrP 5UTR inh: -7; BJeLR viability: 3; Autofluor counter: 2999; Mtb hypoxia rep: 5; Sa RN4220 lethal: 0.4; ugtP null kill: 6; Mtb hypoxia rep growth: -6

How did N#Cc1cccc(S(=O)(=O)NCc2nnc3ccccn23)c1 do in these assays?
PrP 5UTR inh: -7; Autofluor counter: 3816; Mtb hypoxia rep: 5; Sa RN4220 lethal: -0.5; ugtP null kill: -4; Mtb hypoxia rep growth: 11

How did Cc1ccccc1Nc1ncccc1C(=O)N1CCOCC1 do in these assays?
PrP 5UTR inh: -17; BJeLR viability: 1; Autofluor counter: 8538; Mtb hypoxia rep: 13; Sa RN4220 lethal: 3.2; ugtP null kill: -3; Mtb hypoxia rep growth: 0

Results for CCSc1ccccc1C(=O)NCCCn1ccnc1 ?
PrP 5UTR inh: -19; BJeLR viability: 4; Autofluor counter: 9154; Mtb hypoxia rep: 7; Sa RN4220 lethal: -3.0; ugtP null kill: 2; Mtb hypoxia rep growth: 10

Results for CC(=O)c1cccc(Nc2cc(C)nc3c(C)cccc23)c1 ?
PrP 5UTR inh: -9; BJeLR viability: 8; Autofluor counter: 5455; Mtb hypoxia rep: -5; Sa RN4220 lethal: -3.4; ugtP null kill: -4; Mtb hypoxia rep growth: -7

Results for CC12CCC(C(=O)N/N=C/c3ccc(O)cc3)(OC1=O)C2(C)C (stereo not given) ?
PrP 5UTR inh: -26; BJeLR viability: -4; Autofluor counter: 5062

Results for CCCCc1nnc(NC(=O)COc2ccc3c(C)cc(=O)oc3c2)s1 ?
BJeLR viability: 19; Mtb hypoxia rep: -2; Sa RN4220 lethal: -1.9; ugtP null kill: -3; Mtb hypoxia rep growth: 12

How did O=C(NCCNC(=O)C(c1ccccc1)c1ccccc1)c1ccco1 do in these assays?
PrP 5UTR inh: -35; BJeLR viability: -8; Autofluor counter: 7760; Mtb hypoxia rep: 8; Sa RN4220 lethal: -1.1; ugtP null kill: 8; Mtb hypoxia rep growth: 11

Results for CCOc1ccc(CCNC(=O)CSc2nc3ncc(Cl)cc3[nH]2)cc1OCC ?
PrP 5UTR inh: -20; BJeLR viability: -7; Autofluor counter: 6251; Mtb hypoxia rep: 3; Sa RN4220 lethal: 9.8; ugtP null kill: 16; Mtb hypoxia rep growth: -3
